Bioassay records as filed in PubChem BioAssay.
Insulin prom inh – inhibitors of insulin promoter-driven GFP, primary screen, imaging, TRM-6 cells (human fetal islet line), eGFP reporter, cell count. reporter expression induced with tamoxifen. AID 1273, 2008. inhibition, % at 2 µM. actives 0.9% (n = 130,000);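 active means inhibition above the mean plus 3 SD, with well images judged a real hit on visual review, cut at about 60% in these data, passing the limit was not always enough; inconclusive means inhibition over the cutoff but images rejected on review; inactive means inhibition not above the cutoff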
PKD1 inh – inhibitors of human PKD1 kinase, biochemical, fluorescence polarization; actives 0.056% (n = 200,000); Serine/threonine-protein kinase D1 (Homo sapiens), Q15139; AID 797, 2007; inhibition, %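 (about 10 µM by stock and volumes)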; PKD1 kinase fluorescence polarization assay;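 active means inhibition of 50% or more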;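 further: controls were vehicle for no effect and a reference inhibitor for full effect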
Target sequence (Q15139 whole entry, looked up): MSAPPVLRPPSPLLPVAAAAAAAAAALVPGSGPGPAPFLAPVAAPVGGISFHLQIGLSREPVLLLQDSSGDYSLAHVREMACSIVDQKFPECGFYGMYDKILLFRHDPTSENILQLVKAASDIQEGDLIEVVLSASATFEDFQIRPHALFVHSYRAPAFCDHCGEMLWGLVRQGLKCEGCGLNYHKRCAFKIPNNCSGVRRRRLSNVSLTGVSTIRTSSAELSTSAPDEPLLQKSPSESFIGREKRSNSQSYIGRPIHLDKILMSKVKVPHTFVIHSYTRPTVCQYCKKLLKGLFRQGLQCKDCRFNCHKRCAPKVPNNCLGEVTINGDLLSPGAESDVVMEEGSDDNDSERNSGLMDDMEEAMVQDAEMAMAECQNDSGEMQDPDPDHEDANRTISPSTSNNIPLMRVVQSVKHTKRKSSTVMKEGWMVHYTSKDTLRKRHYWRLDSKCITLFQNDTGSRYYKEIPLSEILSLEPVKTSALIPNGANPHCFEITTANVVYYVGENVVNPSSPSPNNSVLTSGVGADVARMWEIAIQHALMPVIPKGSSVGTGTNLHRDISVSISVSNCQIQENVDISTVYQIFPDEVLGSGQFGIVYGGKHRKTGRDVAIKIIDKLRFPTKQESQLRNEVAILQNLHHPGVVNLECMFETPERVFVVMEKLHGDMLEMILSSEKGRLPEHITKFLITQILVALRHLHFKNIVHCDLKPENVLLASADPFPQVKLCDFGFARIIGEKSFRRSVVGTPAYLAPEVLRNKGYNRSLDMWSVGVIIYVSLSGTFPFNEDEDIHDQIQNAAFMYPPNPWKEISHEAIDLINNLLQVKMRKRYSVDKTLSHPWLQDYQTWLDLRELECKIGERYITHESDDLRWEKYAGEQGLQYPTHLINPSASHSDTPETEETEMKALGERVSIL
HSV replic up – enhancers of HSV replication in host cells, fold increase, host cell viability. HSV replication augmentation in cells. actives 0.005% (n = 220,000). maximum fold increase;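 active means peak rise of 1.5-fold or more in the series; inconclusive means self-fluorescent or not available for retest; tested in PC3 cells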;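 further: first round at 10 µM; read as green reporter fluorescence; hits show the peak of a series up to 25 µM; 1 = signal of infected wells without compound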
RGS16-Gao – modulators of RGS16 binding to Galphao, primary screen, biochemical, human proteins, multiplexed bead flow cytometry | binding response (% of control), % at 10 µM | actives 0.38% (n = 220,000) | AID 1441, 2008 | bead-based flow cytometry RGS16-Galphao binding, fluorescence; actives lie on both sides | Regulator of G-protein signaling 16 (Homo sapiens) + Guanine nucleotide-binding protein …;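 active means below 25% or above 175%, edge rows of some plates excepted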;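 further: Galphao activated by GDP with aluminum fluoride before binding; 100% = wells without compound and 0% = beads without RGS; some results beyond the cut were filed as inactive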
GALR2 ag – GALR2 receptor agonists, primary screen, cell-based. Galanin receptor type 2 (Homo sapiens), O43603. GALR2-expressing cells, agonist activation read-out. activation, %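 (tested at 5 µM)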. actives 0.48% (n = 140,000). AID 803, 2007;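 active means above mean plus 3 SD of all compounds, about 5% in these data, not always enough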;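 further: 0% = vehicle buffer wells and 100% = reference agonist at full effect; tested in CHO reporter cells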
Insulin prom inh cell count – also measured in Insulin prom inh; calls as there; normalized cell count, %; measured here: cell count, toxicity; reference of the scale not given here;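 cells exposed to compound for 48 h; stained nuclei by imaging scaled within each plate; lower means fewer cells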
HSV replic up primary fold – second read-out of HSV replic up, no call of its own (marks repeat the call); fold increase; compound at 10 µM; measured here: primary screen fold increase 10 uM; tested in PC3 cells;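 GFP signal in the first replicate; 1 = infected wells without compound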
Numbers without * were called inactive; i = inactive; ? = inconclusive; nt = no result given. Random draw from the library; overall some 1.3% were active at least once.

Second line of a record – Insulin prom inh | Insulin prom inh cell count | PKD1 inh | HSV replic up | HSV replic up primary fold | RGS16-Gao | GALR2 ag
- Cc1nccc2[nH]c(=O)c(C(=O)NC(C)CCc3ccccc3)cc12 (stereo unspecified)
  nt | nt | -2 | i | 0.95 | 103 | nt
- CCOC(=O)c1c(C)[nH]c(C(=O)COC(=O)c2[nH]c(C)c(C(C)=O)c2C)c1C
  -20 | 70 | -10 | i | 1.1 | 96 | -3.9
- O=C(CCC1CCCN(Cc2ccc3c(c2)CCO3)C1)NCc1ccc(F)c(F)c1 (stereo unspecified)
  50 | 131 | -3 | i | 0.78 | 104 | nt
- CCCCN(CC)CCNC(=O)Cn1cnc2sc(C)c(S(=O)(=O)N3CCOCC3)c2c1=O
  42 | 116 | -5 | i | 0.95 | 105 | -1.6
- COc1ccc(/C=N/NC(=O)c2cc(OC)c(OC)c(OC)c2)cc1CN1CCc2cc(OC)c(OC)cc2C1C (stereo unspecified)
  13 | 65 | 0 | i | 0.76 | 100 | nt
- Cc1ccccc1NC(=O)Cn1nnc2ccccc21
  nt | nt | -6 | i | 1 | 109 | nt
- CCOc1ccc(-n2c(C)cc(/C=C3/C(=N)N4C(=NC3=O)SN=C4S(C)(=O)=O)c2C)cc1
  21 | 118 | -1 | i | 1 | 91 | nt
- O=C(NCc1ccco1)C1(c2ccc(Br)cc2)CCCC1
  -30 | 59 | -5 | i | 1.1 | 94 | -1.4
- Cc1ccc(S(=O)(=O)NCCSc2ncccn2)cc1
  nt | nt | -2 | i | 1 | 105 | nt
- Cc1ccc(S(=O)(=O)Nc2ccnc3ccccc23)cc1
  13 | 187 | 7 | i | 1.1 | 101 | -0.5
- CN(C)c1ccc(/C=C2\C(=N)N3C(=NC2=O)Sc2cc(S(C)(=O)=O)ccc23)cc1
  nt | nt | nt | ? | nt | 105 | nt
- Cc1ccc(C2=NNC(=O)C(c3c[nH]c4ccccc34)C2)cc1 (stereo unspecified)
  7 | 72 | 3 | i | 0.98 | 155 | nt
- CCCCCC1CC(CC(=O)Nc2nncs2)C(=O)O1 (stereo unspecified)
  -38 | 64 | -6 | i | 1 | 58 | -0.9
- COc1ccc(N2C(=O)CC(S/C(N)=N/N=C/c3ccnc4ccccc34)C2=O)cc1 (stereo unspecified)
  nt | nt | 3 | i | 1 | 98 | -0.5
- O=C(O)C(Cc1c[nH]c2ccccc12)N1CCS(=O)(=O)CC1 (stereo unspecified)
  -35 | 90 | 0 | i | 1.1 | 101 | nt
- CCCn1c(SCC(=O)Nc2cccc(S(=O)(=O)N3CCCC3)c2)n[nH]c1=O
  nt | nt | 4 | i | 0.71 | 102 | nt
- Cc1ccc(-c2nc(COC(=O)c3c(C)noc3C)cs2)cc1
  -36 | 121 | -13 | i | 0.91 | 104 | -0.3
- S=c1[nH]nc(C2CCCCC2)n1/N=C/c1ccc(Br)s1
  -17 | 92 | 14 | i | 0.75 | 99 | -0.8
- Nc1nnc(SCC(=O)NC2CCCCC2)n1-c1ccccc1
  -60 | 111 | -11 | i | 0.92 | 101 | -1.3
- CC1CCCC(NC(=O)COC(=O)c2sc3ccccc3c2Cl)C1C (stereo unspecified)
  -35 | 98 | -1 | i | 0.99 | 0.2* | -0.2
- C(/CCc1ccccc1)=N\n1cnnc1
  26 | 118 | -3 | i | 0.88 | 70 | -0.6
- Cc1nn(-c2ccccc2)c(C)c1/C=N/NC(=O)c1cc(-c2ccc(Br)s2)[nH]n1
  nt | nt | -11 | i | 0.66 | 100 | -1.6
- O=S(=O)(c1ccc(Cl)cc1)N1CCC2(CC1)CO2
  nt | nt | -9 | i | 0.95 | 99 | nt
- O=C(CN(Cc1ccccc1)C(=O)c1cccc([N+](=O)[O-])c1)Nc1c(Cl)cc(Cl)cc1Cl
  -30 | 107 | -11 | i | 0.75 | 101 | -1.4
- CCOC(=O)Oc1ccc2oc(=O)cc(C)c2c1
  2 | 124 | -8 | i | 0.9 | 107 | 0.1
- Cc1cc(C)nc(-n2nc(C)c3c(C(F)(F)F)cc(=O)[nH]c32)n1
  43 | 126 | -6 | i | 1 | 99 | -2.2
- COc1ccc(CCN2CC3=C(C2=O)C(c2ccccc2)NC(=O)N3C)cc1OC (stereo unspecified)
  -12 | 113 | -2 | i | 0.77 | 116 | -0.2
- O=C(O)c1ccccc1P(=O)(c1ccccc1)c1ccccc1
  nt | nt | -4 | i | 0.94 | 97 | nt
- NC(=O)c1ccc(NCc2ccco2)c([N+](=O)[O-])c1
  -6 | 119 | 0 | i | 1 | 98 | -2.2
- CC1CCCN(C(=O)c2cc(F)c(F)cc2Cl)C1 (stereo unspecified)
  -85 | 101 | 3 | i | 0.92 | 95 | -2.0
- Cc1ccc(OC(=O)c2ccc(C)c(C)c2)cn1
  -50 | 125 | -2 | i | 1 | 104 | -0.2
- CCOC(=O)C1CCN(Cc2ccc(N(C)C)cc2)CC1
  nt | nt | -15 | i | 0.99 | 100 | -0.6
- O=c1oc2c(CN3CCOCC3)c(O)ccc2c2ccccc12
  -2 | 116 | -4 | i | 0.94 | 105 | -0.7
- C/C(CCc1ccc2c(c1)OCO2)=N\N=C1\NC(=O)CC(C(=O)Nc2ccccc2F)S1 (stereo unspecified)
  50 | 61 | 2 | i | 0.96 | 100 | nt
- O=C(O)CCCCCNc1nc2ncn(Cc3ccccc3)c2c(=O)[nH]1
  nt | nt | 3 | i | 1 | 106 | -1.4
- CCN(CCNC(=O)C1CCCN(S(=O)(=O)c2cnc[nH]2)C1)c1ccccc1 (stereo unspecified)
  nt | nt | -4 | i | 0.94 | 42 | -1.7
- FC(F)(F)c1nnc2c(Sc3ccccn3)nc3ccccc3n12
  nt | nt | 7 | i | 0.81 | 92 | -1.9
- Oc1ccccc1/C=N/Nc1ccnc(SCc2ccccc2)n1
  -19 | 76 | -8 | i | 0.87 | 126 | 23*
- Cc1ccc(-n2cc(CNCCc3ncc(C)[nH]3)c(-c3ccc(F)cc3)n2)cc1
  -7 | 105 | 0 | i | 0.82 | 110 | nt
- O=C(O)c1c2c(nc3ccc(S(=O)(=O)N4CCC(C(=O)NC5CCCC5)CC4)cc13)CCCCC2
  nt | nt | -2 | i | 0.9 | 96 | -1.6
- S=C(NCCCN1CCOCC1)NC1CCCC1
  nt | nt | 0 | i | 1 | 98 | nt
- CCCCOc1ccc(-c2nnn(CC(=O)Nc3ncc(CC(=O)OCC)s3)n2)cc1
  -14 | 68 | 0 | i | 1 | 114 | 0.3
- Cc1cc(C(=O)NNC(=O)c2cccc(Cl)c2)no1
  nt | nt | nt | i | 1.1 | 100 | nt
- CCCCNC(=O)COC(=O)c1cc(S(=O)(=O)N2CCCCCC2)ccc1OC
  11 | 34 | -7 | i | 1 | 52 | 0.3
- Cc1ccc(S(=O)(=O)c2c(N)n(NC(=O)c3ccccc3C)c3nc4ccccc4nc23)cc1
  28 | 98 | -2 | i | 0.81 | 100 | -2.3
- CCOC(=O)c1ccc(NC(=O)CC2S/C(=N/N=C/c3c[nH]c4ccccc34)NC2=O)cc1 (stereo unspecified)
  25 | 53 | -3 | i | 0.92 | 113 | -0.6
- Cn1c(SCCS(=O)(=O)c2ccc(Cl)cc2)nnc1-c1ccccc1
  -11 | 110 | 12 | i | 0.99 | 100 | -2.8
- CC(C)(C)NC(=O)c1cccc(NC(=O)CSc2ccc(Cl)cc2)c1
  -31 | 171 | 16 | i | 0.87 | 116 | -0.9
- CCOc1cc(/C=C2\SC(=Nc3ccccc3)N(c3ccccc3)C2=O)ccc1OCC(=O)O
  14 | 119 | 3 | i | 0.99 | 102 | -0.5
- COc1ccc(Oc2nccc(OC)c2C#N)cc1
  -44 | 154 | -6 | i | 0.76 | 104 | -2.0

(more compounds)
Second line of a record – Insulin prom inh | Insulin prom inh cell count | PKD1 inh | HSV replic up | HSV replic up primary fold | RGS16-Gao | GALR2 ag
- CC1=C(C(=O)Nc2ccccc2)C(c2ccncc2)n2nnnc2N1 (stereo unspecified)
  nt | nt | 8 | i | 0.65 | 110 | 0.9
- Cc1ccc2c(C(=O)N3CCN(c4ccccc4)CC3)cc(-c3cccnc3)nc2c1C
  nt | nt | 3 | i | 0.86 | 100 | nt
- COc1ccc(S(=O)(=O)n2nc(-n3c(C)ccc3C)c3c(F)cccc32)cc1OC
  nt | nt | nt | i | 1 | 104 | nt
- NC(=O)COc1ccc2oc(-c3ccccc3)cc(=O)c2c1
  30 | 86 | -2 | i | 1 | 100 | nt
- COC(=O)/C(=N/Nc1ccccc1OC)N1CCCc2ccccc21
  nt | nt | nt | i | 0.79 | 101 | nt
- Cc1cc(C)n2cc(CSc3ncn[nH]3)nc2n1
  nt | nt | 1 | i | 0.78 | 105 | nt
- Oc1ccccc1-c1nc(NCCN2CCOCC2)c2ccccc2n1
  -21 | 126 | 16 | i | 0.77 | 116 | 0.4
- CC1(C)Cc2nc(-c3ccccc3)nc(SCC(O)CO)c2CO1 (stereo unspecified)
  nt | nt | nt | i | 0.96 | 96 | nt
- Cc1c(NC(=O)c2ccc3c4c(cccc24)CC3)c(=O)n(-c2ccccc2)n1C
  nt | nt | -3 | i | 0.92 | 96 | -1.4
- Cc1ccc(C)c(NC(=O)CN(C)C(=O)/C=C/c2ccco2)c1
  -50 | 63 | 0 | i | 1.1 | 104 | nt

Shown with bars between the fields: entries from further up.
Molecule | Insulin prom inh | Insulin prom inh cell count | PKD1 inh | HSV replic up | HSV replic up primary fold | RGS16-Gao | GALR2 ag
CC1=C(C(=O)Nc2ccccc2)C(c2ccncc2)n2nnnc2N1 (stereo unspecified) | nt | nt | 8 | i | 0.65 | 110 | 0.9
Cc1ccc2c(C(=O)N3CCN(c4ccccc4)CC3)cc(-c3cccnc3)nc2c1C | nt | nt | 3 | i | 0.86 | 100 | nt
COc1ccc(S(=O)(=O)n2nc(-n3c(C)ccc3C)c3c(F)cccc32)cc1OC | nt | nt | nt | i | 1 | 104 | nt
NC(=O)COc1ccc2oc(-c3ccccc3)cc(=O)c2c1 | 30 | 86 | -2 | i | 1 | 100 | nt
COC(=O)/C(=N/Nc1ccccc1OC)N1CCCc2ccccc21 | nt | nt | nt | i | 0.79 | 101 | nt

(next part)
Second line of a record – Insulin prom inh | Insulin prom inh cell count | PKD1 inh | HSV replic up | HSV replic up primary fold | RGS16-Gao | GALR2 ag
- COc1cc(OC)c(C2C(C#N)=C(N)OC3=C2C(=O)CC(C)C3)cc1OC (stereo unspecified)
  nt | nt | -11 | i | 0.98 | 97 | -0.2
- Cc1ccc(C)c(NC(=S)NCCc2ccc(S(N)(=O)=O)cc2)c1
  11 | 34 | 0 | i | 0.87 | nt | -1.0
- O=c1c2ccccc2nnn1Cc1cccc2ccccc12
  -18 | 102 | 1 | i | 1 | 101 | nt
- Cc1cc2cc(CCNC(=O)CC(C)(C)C)c(=O)[nH]c2cc1C
  20 | 133 | -1 | i | 0.91 | 74 | -1.7
- COc1cc(C(=O)Nc2nccs2)c(Br)c(OC)c1OC
  0 | 119 | -13 | i | 0.76 | 99 | -4.8
- COc1ccc(S(=O)(=O)N2CCN(S(=O)(=O)c3ccc4c(c3)OCCO4)CC2)cc1C
  -43 | 91 | -2 | nt | nt | 101 | -1.1
- Cc1ccc(N/C=C(\[N+](=O)[O-])S(=O)(=O)c2ccccc2)cc1
  -2 | 149 | -8 | i | 0.91 | 106 | nt
- COc1ccc(NC(=O)C2CC(c3ccc(OC)c(OC)c3)=NO2)cc1OC (stereo unspecified)
  nt | nt | -9 | i | 0.94 | 100 | -1.6
- Cc1cc(N2CCN(c3nc4ccccc4s3)CC2)n2ncnc2n1
  45 | 139 | 1 | i | 0.85 | 98 | -1.0
- O=C(/C=C/c1ccco1)OCn1nnc2ccccc2c1=O
  -33 | 129 | 6 | i | 1 | 108 | nt
- Cc1ccccc1C(=O)NC1CCN(Cc2nnnn2C(C)(C)C)CC1
  nt | nt | -5 | i | 1 | 107 | nt
- O=C1Nc2cc(S(=O)(=O)N3CCCC3)ccc2N2CCCC12 (stereo unspecified)
  -29 | 90 | -4 | i | 0.89 | 97 | 0.6
- Cc1nnc(SCC(=O)N(Cc2ccccc2)C(C)C)n1-c1ccccc1
  -75 | 39 | -8 | i | 0.96 | 102 | -0.3
